PKD1 inh – blocks activity of human protein kinase D1; inhibition, %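 (about 10 µM by stock and volumes)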; 0.056% of 200,000 active; PKD1 kinase fluorescence polarization assay; Q15139;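 active = inhibition of 50% or more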;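 note: controls were vehicle for no effect and a reference inhibitor for full effect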
RGS16-Gao HTS – RGS16-Galphao interaction regulator (human); O15492+P09471; bead-based flow cytometry RGS16-Galphao binding, fluorescence; actives lie on both sides; binding response (% of control), % at 10 µM; 0.38% of 220,000 active; AID 1441;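 active = below 25% or above 175%, edge rows of some plates excepted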;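 note: Galphao activated by GDP with aluminum fluoride before binding; 100% = wells without compound and 0% = beads without RGS; some results beyond the cut were filed as inactive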
Target sequence (O15492 whole entry, looked up): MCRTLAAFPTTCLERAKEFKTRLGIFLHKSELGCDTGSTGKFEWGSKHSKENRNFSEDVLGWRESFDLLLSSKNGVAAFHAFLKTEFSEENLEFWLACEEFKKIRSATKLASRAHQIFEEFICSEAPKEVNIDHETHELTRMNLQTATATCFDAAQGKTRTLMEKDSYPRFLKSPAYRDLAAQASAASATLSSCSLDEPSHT
Target sequence (P09471 whole entry, looked up): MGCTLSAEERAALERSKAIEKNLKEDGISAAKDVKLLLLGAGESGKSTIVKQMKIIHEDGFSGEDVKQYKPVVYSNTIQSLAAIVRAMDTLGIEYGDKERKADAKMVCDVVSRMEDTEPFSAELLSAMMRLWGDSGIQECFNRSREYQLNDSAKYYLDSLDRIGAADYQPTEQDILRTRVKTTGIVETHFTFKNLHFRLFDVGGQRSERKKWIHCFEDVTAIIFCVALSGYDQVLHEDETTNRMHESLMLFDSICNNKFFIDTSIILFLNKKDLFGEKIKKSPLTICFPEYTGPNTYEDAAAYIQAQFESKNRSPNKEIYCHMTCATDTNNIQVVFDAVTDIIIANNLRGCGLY
HSV augment – increases HSV replication in cells. HSV replication augmentation in cells, fold increase. maximum fold increase. 0.005% of 220,000 active;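 active = peak rise of 1.5-fold or more in the series; inconclusive = self-fluorescent or not available for retest; tested in PC3 cells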;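 note: first round at 10 µM; read as green reporter fluorescence; hits show the peak of a series up to 25 µM; 1 = signal of infected wells without compound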
GALR2 ag – agonists of human galanin receptor 2 (GALR2). 0.48% of 140,000 active. GALR2-expressing cells, agonist activation read-out. O43603. activation, %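 (tested at 5 µM)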;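 active = above mean plus 3 SD of all compounds, about 5% in these data, not always enough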;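 note: 0% = vehicle buffer wells and 100% = reference agonist at full effect; tested in CHO reporter cells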
Target sequence (O43603 whole entry, looked up): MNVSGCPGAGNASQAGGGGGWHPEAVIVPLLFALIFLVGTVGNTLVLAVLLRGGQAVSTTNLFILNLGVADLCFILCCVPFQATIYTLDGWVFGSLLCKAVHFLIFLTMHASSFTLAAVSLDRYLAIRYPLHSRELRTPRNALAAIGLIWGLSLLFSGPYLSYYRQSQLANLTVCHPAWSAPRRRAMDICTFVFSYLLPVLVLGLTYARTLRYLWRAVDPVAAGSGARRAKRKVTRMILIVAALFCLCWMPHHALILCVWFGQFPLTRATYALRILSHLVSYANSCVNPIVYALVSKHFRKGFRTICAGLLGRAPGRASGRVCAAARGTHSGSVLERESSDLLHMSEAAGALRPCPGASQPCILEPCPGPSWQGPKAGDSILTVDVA
INS promoter inh – TRM-6 insulin promoter activity inhibition; TRM-6 cells (human fetal islet line), insulin promoter-eGFP reporter, imaging; reporter expression induced with tamoxifen; inhibition, % at 2 µM; 0.9% of 130,000 active; AID 1273;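 active = inhibition above the mean plus 3 SD, with well images judged a real hit on visual review, cut at about 60% in these data, passing the limit was not always enough; inconclusive = inhibition over the cutoff but images rejected on review; inactive = inhibition not above the cutoff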
INS promoter inh cell count – recorded beside INS promoter inh, whose call it bears; normalized cell count, %; measured here: cell count, toxicity; reference of the scale not given here;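 cells exposed to compound for 48 h; stained nuclei by imaging scaled within each plate; lower means fewer cells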
HSV augment primary fold – recorded beside HSV augment, whose call it bears; fold increase; compound at 10 µM; measured here: primary screen fold increase 10 uM; tested in PC3 cells;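 GFP signal in the first replicate; 1 = infected wells without compound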
An asterisk follows results filed as active; i = inactive; ? = inconclusive; . = not tested or not shown.

SMILES | PKD1 inh | RGS16-Gao HTS | HSV augment | HSV augment primary fold | GALR2 ag | INS promoter inh | INS promoter inh cell count
COc1ccc(CNC(=O)C2CCCN2S(=O)(=O)c2ccccc2)cc1 (stereo unspecified) | 17.4 | 100.8 | i | 0.74 | -1.4 | . | .
Cc1cc(C)cc(C(=O)Nc2ccc(NC(=O)Cc3ccccc3)cc2)c1 | 10.3 | 95.0 | i | 0.91 | . | . | .
CCOC(=O)c1c(C(=O)OCC)c(C)n(N2C(=O)CSC2=S)c1C | -3.0 | 100.2 | i | 1.07 | -1.6 | 33.3 | 99.8
O=C(Nc1cccc(C(F)(F)F)c1)c1cccc(NS(=O)(=O)c2ccc(Br)c(C(=O)O)c2)c1 | -3.2 | 102.1 | i | 0.92 | . | 21.4 | 108.6
Cc1nn(CC(C)C)c(=S)[nH]c1=O | -11.7 | 103.8 | i | 0.94 | -2.2 | . | .
O=C(CNC(=O)Cc1ccccc1)NCC(=O)OCc1ccccc1 | -3.9 | 103.1 | i | 0.95 | -3.7 | -69.2 | 95.9
COc1ccccc1Oc1ncnc2c1cnn2-c1ccccc1 | 7.8 | 96.6 | i | 1.04 | . | 25.0 | 113.2
CC(C)c1nnc(NC(=O)Cc2cccs2)s1 | -4.5 | 103.2 | i | 0.76 | -1.4 | -50.0 | 43.7
CCOC(=O)C1(Cc2ccccc2)CCN(Cc2cnn(-c3ccccc3)c2)CC1 | -0.3 | 100.9 | i | 0.88 | . | . | .
CC(=O)Nc1ccc(C(=O)NN2C(=O)c3ccccc3C2=O)cc1 | 0.3 | 92.8 | i | 0.95 | . | . | .
Cn1c(=O)n(C)c2cc(NC(=O)c3cccc([N+](=O)[O-])c3)c(Br)cc21 | -3.7 | 100.4 | i | 0.98 | . | . | .
COCCn1c(=O)[nH]c2cc(C(=O)NCCN3CCN(c4cccc(Cl)c4)CC3)ccc2c1=O | -2.5 | 104.2 | i | 0.91 | -2.0 | 24.3 | 113.8
CCn1c2ccccc2c2cc(NC(=O)COC(=O)c3ccccc3O)ccc21 | -0.9 | 104.6 | i | 0.9 | . | . | .
CCCCCCOc1ccc(C(=O)NCCCn2ccnc2)cc1 | 4.7 | 101.4 | i | 0.97 | . | . | .
Cc1cccc(C)c1OCc1n[nH]c(=S)n1N | -0.9 | 106.3 | i | 0.97 | . | 18.2 | 151.4
O=C(CCNC(=O)c1ccc([N+](=O)[O-])cc1)N/N=C/c1ccc(F)cc1 | -5.4 | 97.0 | i | 1.18 | . | 16.7 | 118.4
CCc1ccc(NCc2cc3c(C)nn(-c4ccccc4)c3[nH]c2=O)cc1 | -0.7 | 102.2 | i | 1.33 | -0.4 | -6.2 | 111.4
CCN1CCN(CC(=O)N2N=C(c3cccs3)CC2c2ccc(F)cc2)C(=O)C1=O (stereo unspecified) | 6.5 | 90.7 | i | 0.93 | . | . | .
CCOC(=O)C1=C(c2ccccc2)OC(N)=C(C#N)C1C1CCCCC1 (stereo unspecified) | -2.5 | 102.7 | i | 0.89 | 0.8 | 0.0 | 88.4
CN(C)c1cccc(C(=O)OCC(=O)N(Cc2ccccc2)C2CCS(=O)(=O)C2)c1 (stereo unspecified) | 0.8 | 112.1 | i | 1.06 | . | -16.7 | 61.1
CCCN(CC(=O)Nc1ccc(C)cc1Br)CC(=O)Nc1ccc(F)c(F)c1F | 5.2 | 103.9 | i | 1 | -0.6 | . | .
O=C(Oc1ccc2c(c1)O/C(=C\c1ccncc1)C2=O)c1cccs1 | . | 99.5 | i | 1.14 | . | . | .
Cn1nccc1C(=O)Nc1ccc(OC(=O)c2ccnn2C)cc1 | -8.9 | 102.5 | . | . | -0.1 | -37.8 | 58.1
CCOC(=O)c1c(C)n(-c2ccc(C)cc2)c2ccc(OCC(O)CN3CCN(C)CC3)cc12 (stereo unspecified) | -3.4 | 102.1 | i | 0.6 | . | -106.7 | 79.7
Cc1cccc(N2CCN(C(=O)CCn3c(=S)[nH]c4cc5c(cc4c3=O)OCO5)CC2C)c1 (stereo unspecified) | -2.1 | 98.9 | i | 0.64 | -1.5 | -40.0 | 134.5
Cn1cccc1/C=N/N1CCN(Cc2ccccc2Cl)CC1 | . | 100.1 | i | 0.96 | . | . | .
C=CCNc1ncnc2c1cnn2-c1ccc(Cl)cc1 | 0.7 | 101.7 | i | 1.13 | 0.3 | -14.3 | 90.2
CCOC(=O)C(NC(C)=O)C(OC(C)=O)c1cccc([N+](=O)[O-])c1 (stereo unspecified) | -9.3 | 101.4 | i | 0.73 | -2.9 | 6.5 | 111.8
CC1CC(C)(C)NC(C)c2ccccc21 (stereo unspecified) | -6.7 | 101.7 | i | 0.78 | -1.8 | . | .
Cc1cnc(C(=O)Nc2ccc(F)c(F)c2)cn1 | -3.8 | 101.5 | i | 0.94 | -2.0 | . | .
COC(=O)c1cccc(NC(=O)C2C3CCC(C3)C2C(=O)O)c1 (stereo unspecified) | -5.2 | 90.8 | i | 0.95 | -1.9 | 0.0 | 33.0
Cc1nn(C(C)(C)C)c(NC(=O)c2ccc(Cl)cc2)c1Br | . | 97.3 | i | 0.85 | . | . | .
O=C(CSc1ccc(Cl)cc1)Nc1ccc(-c2nc3ccccc3[nH]2)cc1 | -8.2 | 100.7 | i | 0.66 | 4.4 | 1.5 | 79.0
CN1CCN(CCC(=O)N/N=C/c2ccccc2F)CC1 | . | 103.8 | i | 0.8 | . | . | .
CCC(C#CCN1CCCCC1)(CC)OCCC#N | 0.8 | 99.5 | . | . | -2.2 | -66.7 | 103.1
Cc1ccc(NC(=O)CN(C)CC(=O)Nc2ccc(N3CCOCC3)cc2)cc1F | 5.0 | 99.6 | i | 0.81 | . | . | .
Cc1nnc(SCC(=O)Nc2nc(-c3ccccc3)cs2)n1N | -9.6 | 98.5 | i | 0.98 | -1.8 | . | .
COc1ccc(NC(=O)C(c2cc3c(cc2[N+](=O)[O-])OCO3)N(C)c2ccccc2)cc1 (stereo unspecified) | -19.5 | 111.8 | i | 0.97 | -1.0 | -10.8 | 82.3
Cc1cc(/C=C2\SC(=Nc3ccc(N4CCOCC4)cc3)N(C)C2=O)c(C)n1-c1cccnc1 | -5.5 | 86.2 | i | 0.93 | -0.8 | 46.7 | 67.9
CCN(CC)c1ccc2cc(-c3nnc(-c4ccncc4)o3)c(=O)oc2c1 | -19.4 | 101.5 | ? | . | -1.3 | 48.0 | 97.5

Of the compounds above, these contain an aryl methoxy group.
SMILES | PKD1 inh | RGS16-Gao HTS | HSV augment | HSV augment primary fold | GALR2 ag | INS promoter inh | INS promoter inh cell count
COc1ccc(CNC(=O)C2CCCN2S(=O)(=O)c2ccccc2)cc1 (stereo unspecified) | 17.4 | 100.8 | i | 0.74 | -1.4 | . | .
COc1ccccc1Oc1ncnc2c1cnn2-c1ccccc1 | 7.8 | 96.6 | i | 1.04 | . | 25.0 | 113.2
COc1ccc(NC(=O)C(c2cc3c(cc2[N+](=O)[O-])OCO3)N(C)c2ccccc2)cc1 (stereo unspecified) | -19.5 | 111.8 | i | 0.97 | -1.0 | -10.8 | 82.3

Quoted at random: six records from the list, in no set order.
SMILES | PKD1 inh | RGS16-Gao HTS | HSV augment | HSV augment primary fold | GALR2 ag | INS promoter inh | INS promoter inh cell count
Cc1nn(C(C)(C)C)c(NC(=O)c2ccc(Cl)cc2)c1Br | . | 97.3 | i | 0.85 | . | . | .
O=C(CSc1ccc(Cl)cc1)Nc1ccc(-c2nc3ccccc3[nH]2)cc1 | -8.2 | 100.7 | i | 0.66 | 4.4 | 1.5 | 79.0
Cc1ccc(NC(=O)CN(C)CC(=O)Nc2ccc(N3CCOCC3)cc2)cc1F | 5.0 | 99.6 | i | 0.81 | . | . | .
CCC(C#CCN1CCCCC1)(CC)OCCC#N | 0.8 | 99.5 | . | . | -2.2 | -66.7 | 103.1
CN1CCN(CCC(=O)N/N=C/c2ccccc2F)CC1 | . | 103.8 | i | 0.8 | . | . | .
CCN(CC)c1ccc2cc(-c3nnc(-c4ccncc4)o3)c(=O)oc2c1 | -19.4 | 101.5 | ? | . | -1.3 | 48.0 | 97.5

Other compounds
SMILES | PKD1 inh | RGS16-Gao HTS | HSV augment | HSV augment primary fold | GALR2 ag | INS promoter inh | INS promoter inh cell count
COc1ccc(CN2CCNC(=O)C2CC(=O)N2CCCO2)c(OC)c1 (stereo unspecified) | 0.4 | 96.4 | i | 0.99 | . | . | .
O=C(Cn1c(C(=O)N2CCN(C3CCCC3)CC2)cc2sccc21)c1ccccc1 | 4.2 | 97.5 | i | 1.04 | -1.9 | . | .
CC(C)Cc1[nH]c(=O)c(C#N)c2c1CCCC2 | 7.1 | 99.1 | i | 0.87 | -1.3 | 14.3 | 128.0
O=C(NCc1ccco1)c1ccc2c(c1)N(Cc1ccccc1)CCS2 | . | 97.5 | i | 0.95 | . | . | .
O=C(CN1CCCC1)NC1C2CC3CC(C2)CC1C3 (stereo unspecified) | -15.3 | 100.7 | i | 1 | -2.8 | -71.4 | 102.7
O=C(CN1CCN(S(=O)(=O)c2ccccc2)CC1)Nc1ccc(Cl)c(Cl)c1 | -1.8 | 82.3 | i | 0.69 | -2.9 | -49.3 | 119.5
COCc1cc(=O)[nH]c(SCC(=O)c2ccccc2)n1 | . | 99.1 | i | 0.99 | . | . | .
O=C(Nc1nc2ccccc2[nH]1)c1ccc([N+](=O)[O-])cc1 | 1.7 | 97.7 | i | 1.01 | . | . | .
O=C(OC(C(=O)NCc1ccco1)c1ccc(Cl)cc1)c1cccs1 (stereo unspecified) | . | 101.1 | i | 0.88 | . | . | .
O=C(O)C1CCCCC1C(=O)NCc1ccc(Cl)c(Cl)c1 (stereo unspecified) | 4.6 | 111.9 | i | 0.98 | . | . | .
Cn1c(N2CCCC2)nc2c1c(=O)n(Cc1ccc(Cl)cc1)c(=O)n2C | 4.8 | . | i | 1.11 | 0.5 | 28.6 | 70.8
Cn1cccc1C(=O)NC(=O)CSc1cccc[n+]1[O-] | 1.1 | 82.5 | i | 0.89 | 0.7 | -3.0 | 103.5
COc1cc(C)ccc1OCCOc1cc(C)ccc1Cl | -4.3 | 104.3 | i | 1.02 | -1.8 | -38.2 | 116.6
CC1CCCN(C(=O)c2ccc3nc[nH]c3c2)C1 (stereo unspecified) | -3.9 | 98.2 | i | 0.91 | -0.9 | . | .
O=C1CC(c2ccccc2)CC2=C1CN(C1CCCCC1)CN2 (stereo unspecified) | -12.7 | 92.0 | i | 0.89 | -2.6 | . | .
CCN(CC)CCN(C(=O)CN1C(=O)CCC1=O)c1nc2cc3c(cc2s1)OCO3 | 1.1 | 97.1 | i | 1.18 | . | 27.8 | 97.8
N#CC1=C(S)N(c2ccc(F)cc2)C(c2ccco2)NC1=O (stereo unspecified) | -3.0 | 83.9 | i | 0.98 | . | -111.1 | 45.8
CCOC(=O)c1cnc2c(cnn2C)c1Oc1ccc(OC)cc1 | -7.6 | 99.0 | i | 1.01 | . | . | .
COc1ccccc1NC(=S)NCc1ccc2c(c1)cc(C)n2C | 0.6 | 125.4 | i | 1.02 | . | 33.3 | 128.1
CN1C2=CC=CC=CC2=[N+](C)C12C=CC(=[N+]([O-])[O-])C=C2[N+](=O)[O-] (stereo unspecified) | -11.0 | 90.0 | i | 0.96 | . | . | .
Cc1ccc(CNC(=O)CN(CCc2ccccc2)S(C)(=O)=O)cc1 | -7.1 | 100.6 | i | 1.01 | . | . | .
CCOC(=O)CSC(=S)NC(=O)c1ccc(OC)cc1 | -1.0 | 100.8 | i | 1.03 | 0.2 | -18.2 | 110.8
CCOC(=O)c1c(NC(=O)C(C)S(=O)(=O)c2cn(CC)c3ccccc23)sc2c1CCCC2 (stereo unspecified) | -9.6 | . | i | 0.8 | -0.8 | -114.3 | 91.0
NC(=O)C1CCN(c2ccc(C(F)(F)F)cc2[N+](=O)[O-])CC1 | 0.5 | 97.0 | i | 0.87 | -0.6 | -20.6 | 109.6
CC1CCC/C(=C\Nc2ccccc2C(=O)O)C1=O (stereo unspecified) | -16.3 | 91.2 | i | 0.78 | -1.2 | . | .
CC(C)(C)NC(=O)C(c1ccc(OCC(N)=O)cc1)N(C(=O)c1cccnc1)C1CC1 (stereo unspecified) | 10.1 | 104.7 | i | 1.14 | -1.6 | -8.3 | 109.5
C/C(=N/OCC(=O)Nc1ccc(C)cc1C)c1cccs1 | -10.1 | 101.8 | i | 0.77 | -1.8 | -10.8 | 116.6
COC(=O)Cc1ccc(N(Cc2ccccc2F)S(=O)(=O)c2ccc(C)cc2)cc1 | -20.5 | 60.2 | i | 1.04 | -1.3 | -50.0 | 35.6
COc1ccccc1OCc1ccc(C(=O)OCC2CCCO2)o1 (stereo unspecified) | -1.6 | 98.7 | i | 0.98 | -2.6 | -73.7 | 63.8
CN=Cc1sc2ccccc2c1O | -5.3 | 101.0 | i | 0.92 | -1.4 | -50.0 | 107.6
CCOC(=O)c1ccc2nc(C(F)(F)F)[nH]c(=O)c2c1 | -5.4 | 99.2 | i | 0.92 | -2.2 | 29.0 | 100.0
